Screening data deposited in PubChem by National Center for Advancing Translational Sciences (NCATS).
ClpP mod: qHTS Assay for Activators of ClpP; ATP-dependent Clp protease proteolytic subunit (Bacillus subtilis (strain 168)), P80244; purified B. subtilis ClpP, FRET peptide cleavage, 20 min; Potency, µM (doses to about 57.5 µM), for the others: at the top dose activity change, negative = active; 340,000 tested, 1.9% active; AID 651965, 2013; active = well fitted falling curve with a large enough effect; inconclusive = small, poorly fitted or top-dose-only effect; inactive = no such curve, though single readings can be large or run the other way; also: potency is read from the fitted curve at half-maximal effect; the source files actives as falling curves though it sought activators and does not explain the sign; nearly all actives have a fitted effect of over 65% in size; many hits overshoot -100%
Target sequence (P80244 whole entry, looked up): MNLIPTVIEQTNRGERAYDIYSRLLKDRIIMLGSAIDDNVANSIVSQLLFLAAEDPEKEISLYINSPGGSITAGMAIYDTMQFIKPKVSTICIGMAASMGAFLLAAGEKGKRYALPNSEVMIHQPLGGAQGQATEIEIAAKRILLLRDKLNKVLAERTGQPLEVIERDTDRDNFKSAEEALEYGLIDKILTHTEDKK
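Purified B. subtilis ClpP, 10 microg/mL final in Tris/HCl pH8 with KCl, BSA, glycerol and Tween-20, cleaved an Abz/nitrotyrosine-quenched decapeptide. Fluorescence (ex 320, em 430) was read at 0 and 20 min at room temperature. Delta was normalized to 5.8 microM ADEP and DMSO/no-enzyme controls.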
CtBP-E1A inh: blocks the CtBP interaction with E1A; AlphaScreen GST-E1A/His-CtBP binding, 1536-well; active compounds read low; control for the full effect not named in the record; 340,000 tested, 0.49% active; activity change, % (test concentration not listed); in the data active means activity change below about -65%; inconclusive means about -30% to -65%; inactive means above about -30%; also: % is scaled to controls: 0 for no effect and ±100 for the full control effect
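In 5 uL wells, 23 nL compound meets equimolar GST-E1A and His-CtBP (5X stock 125 nM each) for 2 h, 37 °C. Beads (5X, 50 ug/mL) then 1 h, 37 °C, dark.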
Menin-MLL FL inh: displaces fluorescein MLL peptide from human menin; FP activity change, % at 61.4 µM; 290,000 tested, under 10 active; AID 1766; Fluorescence polarization, fluorescein-MLL peptide displacement from menin; inconclusive = falling polarisation curve, or a change in total fluorescence; inactive = total fluorescence flat and polarisation flat or rising; no compound was filed as active; the % refers to the polarisation; negative = inhibition;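 also: % of control where 0% means no effect; inhibitors lower the polarisation; unlabelled MLL peptide was the positive control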
gsp antag: gsp mutant antagonism; gsp-mutant cells, cAMP HTRF, 30 min; control for the full effect not named in the record; Potency, µM (series often up to 76.9 µM), for the others: top-dose activity change, negative = inhibition, usual class: inhibitors; 340,000 tested, 0.4% active; active = falling curve of any shape with a large fitted effect; inconclusive = falling curve, mostly with a smaller effect; inactive = flat or rising curve; cell line not stated here;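 also: intracellular cAMP measured with PDE inhibitor Ro 20-1724 present during compound exposure; potency is read from the fitted curve at half-maximal effect; % is scaled to controls: 0 for no effect and ±100 for the full control effect; nearly all actives have a fitted effect of over 65% in size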
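Cells in G418 medium, seeded 16-24 h, 37C; buffer exchange to DPBS + 1 mM CaCl2, 0.5 mM MgCl2, 0.05% BSA; cpds in DMSO + […] (300 uM stock), 30 min 37C; HTRF cAMP detection.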
Sfp PPTase inh: inhibitors of Bacillus subtilis Sfp phosphopantetheinyl transferase; 310,000 tested, 3.5% active; Biochemical Sfp PPTase activity, qHTS; Potency, µM, for inactives: max response, negative = inhibition, most hits filed as inhibitors; active = well fitted inhibition curve with a large enough effect; inconclusive = small, poorly fitted or top-dose-only effect, or another doubt; inactive = no such curve, though single readings can be large or run the other way;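 also: the enzyme is Sfp with the accession as filed and its product quenches rhodamine fluorescence; potency is read from the fitted curve at half-maximal effect; 0% = enzyme reaction without inhibitor and -100% = no enzyme wells; top concentration of the series not given in the record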
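With Hepes-Na pH 7.6 buffer containing 10 mM MgCl2, Sfp (15 nM) modified BHQ-2-YbbR (12.5 uM) using rhodamine-CoA (5 uM). Two reads 30 minutes apart at 525/598 nm yielded each well's rate.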
gsp agonist: agonists of gsp mutant (McCune-Albright syndrome) | gsp mutant cells, cAMP HTRF, 30 min; control for the full effect not named in the record | Potency, µM (top dose mostly 76.9 µM), inactives show top-dose activation (cAMP increase), most hits filed as activators | 340,000 tested, 0.13% active | AID 624287; active = well fitted activation curve with a large enough effect; inconclusive = small, poorly fitted or top-dose-only effect, or another doubt; inactive = no such curve, though single readings can be large or run the other way; cell line not stated here;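 also: phosphodiesterase inhibitor Ro 20-1724 added with compounds to block cAMP breakdown; potency is read from the fitted curve at half-maximal effect; nearly all actives have a fitted effect of over 60% in size; about a fifth of the inactives were tested at one dose only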
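Cells in DMEM/10% FBS with G418 were pretreated with compounds in DMSO plus […] (300 uM stock) for 30 min at 37C. cAMP was measured by HTRF (cAMP-d2 plus anti-cAMP antibody-K) after 30 min at room temperature.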
TRPV1 potentiator: human TRPV1 potentiation; 320,000 tested, 0.02% active; TRPV1-expressing cells, Fluo-8 calcium influx, capsaicin EC20 potentiation; host cell line not named in the record; control for the full effect not named in the record; Q8NER1; potentiation, % at 8.33 µM; active means potentiation above 80%; inconclusive means 30% to 80%; inactive means below 30%; also: 0% is about no effect
Target sequence (Q8NER1 whole entry, looked up): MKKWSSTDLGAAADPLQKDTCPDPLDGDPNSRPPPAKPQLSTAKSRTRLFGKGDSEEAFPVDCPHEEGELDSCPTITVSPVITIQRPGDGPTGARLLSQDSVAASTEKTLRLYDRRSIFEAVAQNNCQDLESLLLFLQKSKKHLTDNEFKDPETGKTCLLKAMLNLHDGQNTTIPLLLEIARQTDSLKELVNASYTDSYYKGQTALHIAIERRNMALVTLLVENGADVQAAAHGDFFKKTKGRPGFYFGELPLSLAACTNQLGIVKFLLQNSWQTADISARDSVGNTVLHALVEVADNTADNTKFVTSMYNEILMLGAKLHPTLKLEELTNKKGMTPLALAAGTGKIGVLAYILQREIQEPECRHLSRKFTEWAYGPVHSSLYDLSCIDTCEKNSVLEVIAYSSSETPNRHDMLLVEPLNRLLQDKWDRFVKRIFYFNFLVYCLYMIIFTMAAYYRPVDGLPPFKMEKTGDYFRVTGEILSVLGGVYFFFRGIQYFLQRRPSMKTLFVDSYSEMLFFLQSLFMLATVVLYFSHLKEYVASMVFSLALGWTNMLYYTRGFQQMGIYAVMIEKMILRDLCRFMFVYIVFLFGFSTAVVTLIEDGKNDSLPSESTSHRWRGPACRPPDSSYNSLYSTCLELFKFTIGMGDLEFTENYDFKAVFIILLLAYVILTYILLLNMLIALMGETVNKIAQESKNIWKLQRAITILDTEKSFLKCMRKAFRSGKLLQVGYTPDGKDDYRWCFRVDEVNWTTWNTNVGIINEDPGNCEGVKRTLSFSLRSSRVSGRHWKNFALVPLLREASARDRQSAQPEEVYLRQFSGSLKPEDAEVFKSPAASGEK
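TRPV1-expressing cells were cultured overnight at 35.5C and loaded with Fluo-8 calcium dye for 40 to 90 min at room temperature. After a 10 s baseline, compound was added and calcium influx was read kinetically for 3 min (ex 480/em 520 nm).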
* = called active by the depositor; u = inconclusive; x = no result given; & = joins results of further samples; [ ] = dose if it differs, or a comment.

SMILES	ClpP mod	CtBP-E1A inh	Menin-MLL FL inh	gsp antag	Sfp PPTase inh	gsp agonist	TRPV1 potentiator
CCOC(=O)c1c(-c2cccs2)csc1NC(=O)CN(CC)CC	u	3	2.8	-12%	-18%	16%	-7
CCOC(=O)CNc1nc(C(C)(C)C)nc2c1nnn2Cc1ccccc1	-11%	-21	3.6	-3%	27%	-12%	5
N=C1C(c2nc3ccccc3c(=O)[nH]2)=C(O)CN1c1ccccc1	x	x	3.0	x	-2%	x	22
CN1C(=O)[C@H]2[C@@H](c3ccccc3)N[C@]3(CCCN(Cc4ccco4)C3=O)[C@H]2C1=O	-0.2%	3	x	x	x	u	x
Cn1nc(N)c2ncc(C(Cl)(Cl)Cl)nc21	0.6%	2	x	x	x	11%	x
CC(NC1=CC(=O)c2cccnc2C1=O)C(O)c1ccccc1 (configuration not stated)	-20%	u	x	2%	x	u	x
S=C(NN=Cc1ccccn1)N(Cc1ccccn1)Cc1ccccn1	22µM*	-94*	x	0%	x	1%	x
CN(C(=O)NC1CCCCC1)c1ccccc1	-3.2%	x	-7.6	-4%	6%	-2%	-3
Cn1nc([N+](=O)[O-])nc1Oc1ccccc1F	-3.2%	-6	-3.9	4%	24%	2%[15.4 µM]	-10
Cc1cc(C)n(-c2nc(SCCN3CCOCC3)c3c4c(sc3n2)CCCC4)n1	x	-6	x	-1%	x	-10%[15.4 µM]	x
Cc1sc(NC(=O)c2oc3ccccc3c2C)c(C#N)c1C	-1.9%	4	3.7	16%	7%	u	0
Cc1ccc(Cl)c2c1NC(=O)C2(O)CC(=O)c1ccccc1O (configuration not stated)	2.2%	-2	-1.0	0%	3%	-41%[inhibitor]	-3
Cc1ccc(C)c(NC(=S)NNc2ccc(F)cc2F)c1	-5.0%	16	-14	-3%	-17%	9%[15.4 µM]	-35
CCc1ccc(C(=O)NCc2ccc(Cl)cc2Cl)cc1	-3.1%	20	x	-17%	1%	26%	-14
COc1ccccc1-c1coc2cc(O)cc(O)c2c1=O	-4.7%	5	3.4	3%	-1%	0%	2
NS(=O)(=O)c1ccc(CCNC(=O)Cc2ccccc2[N+](=O)[O-])cc1	x	2	0.4	-4%	26%	4%	5
C=CCN(C(=O)c1ccc2snnc2c1)c1ccccc1	x	3	0.2	-4%	11%	-2%	5
COCCn1c(SCC(N)=O)nnc1-c1c[nH]c2ccccc12	-3.8%	-22	3.3	-2%	4%	-1%	5
O=C(CCn1cnnn1)Nc1ccc(F)cc1	-2.1%&0.6%	2	-2.7	11%	1%	1%	-8
CCCCN1CCCC1CNC(=O)c1cc(C#N)c2ccccc2c1OC (configuration not stated)	x	x	0.0	x	18%	x	-5
Cc1cc(C)n2c(SCCN3C(=O)c4ccccc4C3=O)nnc2n1	1.7%	7	3.1	3%	25%	-36%[inhibitor]	8
NC1=NC[C@H](c2ccccc2)N1CCc1cc(C(F)(F)F)cc(C(F)(F)F)c1	0.2%	x	7.3	11%	-5%	1%	-23
Cc1cc(NC(=O)CSc2nnc(NC(=O)C3CC(=O)N(c4ccccc4)C3)s2)no1 (configuration not stated)	-0.3%	9	2.9	10%	3%	-12%	-2
COc1cc(OC)c2ccc(=O)oc2c1	4.2%	-19	-2.9	3%	-14%	9%	x
COC(=O)c1sc(N2C(=O)C(O)=C(C(=O)c3ccc(C)o3)C2c2ccc(F)cc2)nc1C (configuration not stated)	0.9%	14	24	12%	u	u	13
Additional records:
SMILES	ClpP mod	CtBP-E1A inh	Menin-MLL FL inh	gsp antag	Sfp PPTase inh	gsp agonist	TRPV1 potentiator
Cc1noc(C)c1C(=O)OC(C)C(=O)N1CCc2ccccc21 (configuration not stated)	-3.5%	x	x	5%	x	5%	-10
CC(=O)C1=C(C)OC(N)=C(C#N)C1c1cc2cc(C)c(C)cc2nc1Cl (configuration not stated)	-9.7%	-4	5.1	-12%	u	u	-3
Cc1ccc(-n2nc(C)c(C3(O)C(=O)N(C)c4ccccc43)c2N)cc1 (configuration not stated)	0.1%	2	1.9	-2%	14%	9%	3
COc1ccc(OC)c(NC(=O)CCNS(=O)(=O)c2ccc3c(c2)c(=O)n(C)c(=O)n3C)c1	-1.9%	-21	-0.7	-2%	22%	22%	3
CCCCNc1oc(-c2cccs2)nc1S(=O)(=O)c1ccccc1	-24%	2	-2.5	-2%	8%	u	-8
N/C(=N\OC(=O)Cc1ccc(-c2ccccc2)cc1)c1ccccn1	0.0%	-1	0.0	3%	-10%	15%	-5
Cn1c(=O)n(C)c2cc(S(=O)(=O)NCc3ccco3)ccc21	-1.6%	-5	0.9	1%	0%	-19%	-1
CC(=O)c1c(C)[nH]c(C(=O)N2CCN(S(=O)(=O)c3ccc(F)c(F)c3)CC2)c1C	1.1%	7	x	8%	x	-4%	-16
CC(C)CC(C)c1cc(N)nc2nc3ccccc3n12 (configuration not stated)	x	-8	3.0	-5%	-2%	-2%[15.4 µM]	-6
CN(C)C(=O)Nc1cnc2ccccc2c1	-24%	1	-1.8	-2%	15%	3%	0
CCCCCOc1ccc(C2C(C(C)=O)=C(C)Nc3ncnn32)cc1OC (configuration not stated)	11µM*	4	2.3	3%	13%	-19%	8
COC(=O)[C@@H]1C[C@H]2CC[C@H](O)C[C@H]2N1Cc1ccc(C(F)(F)F)cc1	-0.6%	6	5.2&7.3	5%	13%&14%	x	-34
O=C(Cc1ccccc1)Nc1ccc(-c2nnc(-c3ccco3)o2)cc1	8.9µM*	0	2.3	13%	13%	4%	24
Cc1ccccc1CNC(=O)C(=O)NCC1CCCN1S(=O)(=O)c1ccccc1 (configuration not stated)	-2.3%	-3	x	2%	x	3%[15.4 µM]	9
CCN(CC)c1ccc(NC(=O)COC(=O)C2CCN(c3ccc(C(F)(F)F)cn3)CC2)cc1	-12%	5	x	-7%	x	-13%	-11
N/C(=N\OC(=O)c1cccc(F)c1)c1cccc([N+](=O)[O-])c1	-1.3%	4	-8.9	2%	-19%	-2%[15.4 µM]	-2
CC(C)Cn1c(N)c(C(=O)COC(=O)C2CCCN2C(=O)c2cccs2)c(=O)n(C)c1=O (configuration not stated)	-4.2%	6	x	-8%	x	u	-8
CC(C)N(C(=O)[C@H]1C[C@H](CC(=O)NCCCN(C)C)C(=O)N2CCc3c([nH]c4cc(-c5ccco5)ccc34)[C@]12C)C(C)C	3.6%	-8	x	6%	x	x	x
Cn1cccc1Cc1nnc(SCC(=O)NCCc2ccccc2)n1C	x	2	-0.8	10%	11%	-54%[inhibitor]	6
COc1ccc(NC(=O)C2CC3C=CC2C3)c([N+](=O)[O-])c1 (configuration not stated)	-2.6%	-24	x	-4%	x	10%	x
Cc1ccc(OCc2ccc(C(=O)Nc3ccc(C(N)=O)cc3)o2)c([N+](=O)[O-])c1	-1.7%	x	1.7	2%	20%	-37%[inhibitor]	-1
Cc1cc(C(=O)NC2CCCC(C)C2C)c2ccccc2n1 (configuration not stated)	-9.7%	13	x	-1%	x	1%	15
C[C@H](NS(=O)(=O)c1ccc(Cl)cc1)C(=O)OCC(=O)N1CCOCC1	-1.9%	1	x	-4%	x	11%	x
CC1CCN(c2ccc([N+](=O)[O-])cc2C(N)=O)CC1	x	-13	0.5	-2%	9%	-8%[15.4 µM]	0
O=C(Cc1cccs1)OCC(=O)c1ccco1	-11%	9	11	-7%	-19%	-6%	5
Additional structures:
SMILES	ClpP mod	CtBP-E1A inh	Menin-MLL FL inh	gsp antag	Sfp PPTase inh	gsp agonist	TRPV1 potentiator
CCC(=O)N1CCN(c2ccc(NC(=O)COc3ccc(CC)cc3)cc2)CC1	-4.8%	-19	-15	-4%	16%	-9%[15.4 µM]	3
CC(=O)Nc1cccc(Nc2nc(-c3ccccc3)nc3ccccc23)c1	x	2	1.3	-23%	7%	-17%	6
Cc1ccc([N+](=O)[O-])cc1N	0.7%	x	-0.7	9%	24%	9%	-1
CCN(CC)c1ccc(/C=N/NS(=O)(=O)c2ccc(C)c([N+](=O)[O-])c2)cc1	1.6%	8	5.7	-4%	-5%	10%[15.4 µM]	8
COc1ccc(CCN2CC(C(=O)N(C)Cc3ccccc3OC)CCC2=O)cc1 (configuration not stated)	-2.4%	-4	1.1	-2%	21%	-5%	4
Cc1ccc2nc(NC(=O)CCCc3nc4ccccc4s3)sc2c1	14%	2	1.2	-14%	-22%	-31%[inhibitor]	u
Cc1ccc(OCC(=O)N2CCCCC2)c(Br)c1	-1.4%	8	4.0	-8%	16%	-75%[inhibitor]	-5
CN1CCC(NC(=O)Nc2ccc(Br)cc2)CC1	1.0%	x	-2.2	16%	2%	u	1
Cc1c(C#N)c(N)nc(Cl)c1C#N	x	-13	-3.0	-8%	-12%	2%[15.4 µM]	u
Cc1nn(C)cc1C(C)Nc1nc2nonc2nc1N1CCCCC1 (configuration not stated)	x	-8	-0.7	-6%	11%	22%	-3
CCN(CC)c1nc2n(c(=O)n1)CCO2	-0.4%	0	3.8	7%	-3%	3%	7
CC(C)c1cc(CNC(=O)CCc2nnc(CCCCc3ccccc3)o2)on1	-1.1%	8	2.0	-11%	12%	5%	10
O=C1CN(C(=O)COc2c(Cl)cccc2Cl)c2ccccc2N1	1.2%	-2	x	-4%	x	-4%[15.4 µM]	22
O=C(c1ccc(Br)o1)N1CCN=C1SCc1cccnc1	-1.0%	0	0.5	-9%	1%	-16%	-4
Oc1c(Br)cc(Br)cc1/C=N/Nc1ccc(Cl)nn1	x	-18	7.8	4%	-4%	-5%	12
CSCCNCc1c(C(=O)N2CCOCC2)nc2c(C)cccn12	x	1	-9.5	1%	14%	-7%[15.4 µM]	9
C=CCn1c(SCC(=O)c2[nH]c(C)c(C(=O)OCC)c2C)nc2scc(-c3ccccc3)c2c1=O	-7.5%	4	3.7	5%	12%	-7%	3
COc1ccc(Cl)cc1NC(=O)C(=O)NCc1ccncc1	x	-23	-3.9	-2%	19%	9%	-10
C/C(=N/NC(=O)C1CCCN1C(=O)c1ccc([N+](=O)[O-])cc1)c1ccc(Br)cc1 (configuration not stated)	5.5%	3	4.6	-20%	1%	-3%[15.4 µM]	2
COc1ccc(C(C(=O)NC2CCCC2)N(Cc2ccccc2)C(=O)c2nsc(Cl)c2Cl)cc1 (configuration not stated)	-3.6%	-9	-0.7	-9%	-1%	4%	-16
